# High-throughput results from PubChem.
# B2AR ag: agonists of human beta-2 adrenergic receptor inducing internalization. P07550. Am2.2-beta2AR cells, FAP receptor internalization, flow cytometry; reference of the scale not given here. response, % (no concentration beside the values). 340,000 tested, 0.43% active;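 active = response above a set limit, near 3 SD of response in nonfluorescent compounds, cut at about 42% in these data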;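 note: stock transfer was 100 nL into about 11 µL; a reference agonist was the positive control; negative values mostly stem from fluorescent compounds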
# UCH37 inh: blocks the human deubiquitinase UCH37 | Q9Y5K5 | purified proteasome/UCH37, Ub-AMC cleavage fluorescence | inhibition, % (test concentration not listed) | 330,000 tested, 0.33% active;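 active = mean of two replicates above 20%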;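 note: 0% = compound-free wells with enzyme and 100% = wells lacking proteasome; stock transfer was 100 nL into about 20 µL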
# Target sequence (Q9Y5K5 whole entry, looked up): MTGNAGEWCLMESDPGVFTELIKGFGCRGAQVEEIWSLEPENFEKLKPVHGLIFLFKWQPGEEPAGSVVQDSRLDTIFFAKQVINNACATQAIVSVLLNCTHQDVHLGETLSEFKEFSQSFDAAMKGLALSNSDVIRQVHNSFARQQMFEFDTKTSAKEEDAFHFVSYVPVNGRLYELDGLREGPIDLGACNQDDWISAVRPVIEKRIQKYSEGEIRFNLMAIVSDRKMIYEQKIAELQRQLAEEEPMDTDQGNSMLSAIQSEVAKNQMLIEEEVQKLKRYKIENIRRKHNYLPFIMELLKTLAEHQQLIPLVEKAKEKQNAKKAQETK
#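 Material: human UCH37 enzyme supplied as purified proteasome complex. Measure: % inhibition of Ub-AMC cleavage fluorescence. Medium: pH 7.4 Tris-HCl (50 mM) with ovalbumin, ATP-MgCl2, DTT. Times: 30 min preincubation with enzyme, 25 min cleavage at room temperature. Detection: AMC fluorescence intensity at 355/460 nm.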
# ALR inh: inhibitors of human sulfhydryl oxidase ALR; AID 485317; P55789; purified ALR, DTT oxidation, H2O2 HRP-luminol luminescence; 290,000 tested, 3.8% active; inhibition, % (concentration not given with the values);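 active = mean and each replicate at 75% or more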;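 note: stock transfer was 7.5 nL into about 7.5 µL; 0% = neutral wells and 100% = wells with inactivated enzyme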
# E coli growth: blocks Escherichia coli growth; OD600, 23 h; stronger effect = lower value; OD600 absorbance (concentration not given with the values); 330,000 tested, 0.21% active; AID 1053175;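 active = OD600 absorbance below the run mean of sample wells minus 3.6 SD, in any replicate, cut at about 0.56 in these data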;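 note: stock transfer was 300 nL into about 60 µL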
# rRNA inh HTS: selective bacterial rRNA inhibition in E. coli; E. coli WT GFP vs humanized-ribosome RFP mutants, fluorescence, 24 h; stronger effect = lower value; DMSO median 0, no signal -100; GFP signal change (wild-type ribosome), % (concentration not given with the values); 350,000 tested, 1.6% active;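 active = significant combined selectivity score with lowered wild-type GFP, culture density cut under 30%, mutant RFP and density less affected; inactive = any of these conditions unmet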; note: one replicate is shown; some compounds called inactive have numbers as strong as hits
# HNF4A DNA FP: change in binding of human HNF4 alpha to DNA | P41235 | HNF4a-FITC DNA binding, fluorescence polarization, 1 h | activity change, % at 10 µM | 360,000 tested, 0.3% active | AID 1224865; in the data active = activity change above about 30%, passing the limit was not always enough;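 note: controls were the assay level and a saturating level of protein; the project sought stronger binding though the title names inhibitors; some compounds called inactive have numbers as strong as hits; positive values seem to mean higher polarization but the record does not say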
# Target sequence (P41235 whole entry, looked up): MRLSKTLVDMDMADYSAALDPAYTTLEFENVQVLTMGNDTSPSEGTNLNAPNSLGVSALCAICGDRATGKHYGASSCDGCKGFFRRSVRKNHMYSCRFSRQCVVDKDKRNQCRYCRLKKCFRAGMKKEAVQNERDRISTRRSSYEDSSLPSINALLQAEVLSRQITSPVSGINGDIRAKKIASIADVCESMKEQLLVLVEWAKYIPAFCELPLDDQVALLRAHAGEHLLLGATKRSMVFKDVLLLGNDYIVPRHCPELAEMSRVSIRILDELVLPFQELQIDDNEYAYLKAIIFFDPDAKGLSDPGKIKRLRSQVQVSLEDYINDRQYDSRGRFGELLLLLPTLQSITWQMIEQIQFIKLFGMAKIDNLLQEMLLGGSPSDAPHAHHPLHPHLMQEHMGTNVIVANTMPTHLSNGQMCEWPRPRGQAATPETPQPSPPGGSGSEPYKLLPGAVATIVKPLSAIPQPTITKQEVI
# FGF22 binding: binders of recombinant human FGF22 by thermal shift | SYPRO orange fluorescence; percent of sucrose octasulfate shift, DMSO zero | calls only at 9.99 µM | 340,000 tested, 1.5% active;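 active = melting point raised past a set limit in the mean and every replicate; three in four hits are not shown here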
# Target sequence (Q9HCT0 whole entry, looked up): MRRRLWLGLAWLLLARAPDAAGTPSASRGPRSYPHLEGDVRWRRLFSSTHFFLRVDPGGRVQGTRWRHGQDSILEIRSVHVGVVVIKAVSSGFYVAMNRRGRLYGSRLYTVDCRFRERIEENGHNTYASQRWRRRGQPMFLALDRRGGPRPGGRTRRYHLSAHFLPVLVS
# rRNA inh HTS OD600: further read-out of rRNA inh HTS, marked with its call; OD600 change, %; measured here: OD600 growth;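 optical density of the mix in the first replicate; 0 = DMSO median and -100 = no signal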
# rRNA inh HTS RFP: further read-out of rRNA inh HTS, marked with its call; RFP signal change, %; measured here: RFP humanized mutant strains;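 first replicate; 0 = DMSO median and -100 = no signal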
# * marks the source's active call; other numbers are inactive results; i = inactive; . = not tested or not shown; + = active, no number. Not all compounds are listed; the hit share may differ from the screen's.
# Assay codes – A = B2AR ag; B = UCH37 inh; C = ALR inh; D = E coli growth; E = rRNA inh HTS; F = rRNA inh HTS OD600; G = rRNA inh HTS RFP; H = HNF4A DNA FP; I = FGF22 binding
> CC1(C)C2CCC1(CS(=O)(=O)Nc1ccc(S(=O)(=O)N3CCCC3)cc1)C(=O)C2 (stereo not drawn)
  A: 21; B: 4.5; C: .; D: 0.72; E: .; F: .; G: .; H: -0.1; I: .
> O=P(c1ccccc1)(c1ccccc1)c1ccccc1C(Br)Br
  A: .; B: .; C: .; D: .; E: -26; F: -43; G: -1.9; H: -2.4; I: i
> CCOCCOC(NC(=O)c1ccccc1)(C(F)(F)F)C(F)(F)F
  A: 9; B: 5.7; C: 1; D: 0.67; E: 2; F: 13; G: -1.9; H: 2.4; I: i
> CCOc1ccc(C(=O)NCC(=O)OCc2ccc(F)cc2Cl)cc1
  A: 4; B: 2.1; C: -1; D: 0.67; E: -5; F: 0; G: -1.5; H: -3.3; I: i
> O=C(Cc1n[nH]c(=O)c2ccccc12)OCC(=O)c1ccc(F)c(F)c1
  A: -8; B: 3.5; C: .; D: 0.66; E: 10; F: 13; G: 0.9; H: 5.1; I: i
> COc1ccc(NS(=O)(=O)c2ccc(N3CCCC3)c(NC(=S)Nc3ccc(SC(F)F)cc3)c2)cc1
  A: 5; B: 3.3; C: 10; D: 0.71; E: -2; F: 3; G: 7.6; H: -1.2; I: i
> COc1ccc(OC)c(N/C(C)=C/C(=O)c2ccc(Br)cc2)c1
  A: 19; B: 5.0; C: .; D: 0.7; E: -3; F: 2; G: 4.3; H: -1.4; I: i
> COC(=O)c1c(NC(=O)c2c(-c3ccccc3Cl)noc2C)sc2c1CCC2
  A: -6; B: -64; C: -1; D: 0.7; E: .; F: .; G: .; H: 5.1; I: .
> OCCOCCOc1ccccc1OCCOCCO
  A: 5; B: 2.6; C: -18; D: 0.7; E: -1; F: 5; G: 0.9; H: 2.1; I: i
> CCCc1cc(C(=O)NC2CCCC2)no1
  A: -12; B: 2.1; C: 8; D: 0.64; E: 15; F: 20; G: 2.7; H: 1.6; I: i
> CN(C)C(=O)CN1CCN(Cc2nc(CC3CC3)no2)CC1
  A: 1; B: 0.3; C: -1; D: 0.68; E: 7; F: -1; G: -2.9; H: 3.6; I: i
> CN(Cc1ccccc1)C(=O)c1ccc2c(c1)S(=O)(=O)N=C1CCCCCN12
  A: -5; B: 2.0; C: 0; D: 0.71; E: 0; F: 2; G: 0.5; H: -2.1; I: i
> CC(=O)Oc1ccc(/C=N/NC(=O)CCSc2ccccc2)cc1
  A: 0; B: .; C: 53; D: .; E: -7; F: -13; G: 2.3; H: 1.5; I: i
> O=C(CSc1nnc(CNC(=O)c2ccco2)o1)c1ccccc1
  A: 3; B: 1.1; C: 39; D: 0.72; E: .; F: .; G: .; H: -3.3; I: .
> N#Cc1c(NC(=O)c2ccc(Cn3cc(Br)cn3)o2)sc2c1CCCCCC2
  A: 4; B: -32; C: -7; D: 0.73; E: .; F: .; G: .; H: -1.1; I: .
> CC(C)C[C@H](NC(=O)[C@H](Cc1ccccc1)n1c(=O)[nH]c2ccccc2c1=O)C(=O)N1CCC(C(=O)O)CC1
  A: 5; B: 2.0; C: 7; D: 0.77; E: .; F: .; G: .; H: -2.9; I: i
> Cn1cc(-c2nnnn2-c2ccc(Cl)cc2)c(C(F)(F)F)n1
  A: 0; B: 2.8; C: -5; D: 0.66; E: .; F: .; G: .; H: 2.7; I: .
> COc1ccc(NC(=O)c2ccc(C#CC(C)(C)O)cc2)cc1
  A: -4; B: 0.5; C: .; D: 0.73; E: .; F: .; G: .; H: 2.2; I: .
> CN(CC(=O)Nc1ccc(Cl)c(C(F)(F)F)c1)C(=O)C1CC(=O)N(Cc2ccco2)C1 (stereo not drawn)
  A: 5; B: -1.2; C: 1; D: 0.68; E: -4; F: -6; G: 2.7; H: 3.2; I: i
> O=C(COc1cc(Cl)ccc1Cl)Nc1nnc(C2CC2)s1
  A: -9; B: 3.3; C: 7; D: 0.67; E: 10; F: 15; G: 8.3; H: 3.9; I: i
> CCCCNC(=O)Cn1cnc2sc(C)c(S(=O)(=O)N3CCN(c4ncccn4)CC3)c2c1=O
  A: 3; B: 2.2; C: 2; D: 0.71; E: 4; F: 9; G: 0.8; H: -1.9; I: i
> COC(=O)c1ccc(Sc2ccccc2NS(=O)(=O)c2ccc(OC)cc2)nc1
  A: 2; B: 0.5; C: -3; D: 0.73; E: .; F: .; G: .; H: -2.4; I: .
> C=CCn1c(SCC(=O)Nc2nc(C)cs2)nnc1C(NC(=O)c1ccccc1)C(C)C (stereo not drawn)
  A: -1; B: 2.7; C: -16; D: 0.74; E: .; F: .; G: .; H: -0.5; I: .
> O=[N+]([O-])c1ccc(S(=O)(=O)N2CCN=C2SCc2ccc(F)cc2)cc1
  A: -7; B: 2.4; C: -1; D: 0.71; E: 4; F: 10; G: -0.2; H: -0.3; I: i
> Cc1ccc(C(=O)N2CCN(S(=O)(=O)c3ccc(C(C)C)cc3)CC2)s1
  A: 1; B: -1.4; C: -2; D: 0.67; E: 3; F: -4; G: 0.7; H: 0.8; I: i

# Part of the list above, with values under each structure:
# Fields: B2AR ag, UCH37 inh, ALR inh, E coli growth, rRNA inh HTS, rRNA inh HTS OD600, rRNA inh HTS RFP, HNF4A DNA FP, FGF22 binding
- COc1ccc(NS(=O)(=O)c2ccc(N3CCCC3)c(NC(=S)Nc3ccc(SC(F)F)cc3)c2)cc1
 : 5, 3.3, 10, 0.71, -2, 3, 7.6, -1.2, i
- COc1ccc(OC)c(N/C(C)=C/C(=O)c2ccc(Br)cc2)c1
 : 19, 5.0, ., 0.7, -3, 2, 4.3, -1.4, i
- COC(=O)c1c(NC(=O)c2c(-c3ccccc3Cl)noc2C)sc2c1CCC2
 : -6, -64, -1, 0.7, ., ., ., 5.1, .

# (cont.)
# Assay codes – A = B2AR ag; B = UCH37 inh; C = ALR inh; D = E coli growth; E = rRNA inh HTS; F = rRNA inh HTS OD600; G = rRNA inh HTS RFP; H = HNF4A DNA FP; I = FGF22 binding
> Cc1cc(NCc2ccccc2)nc(N2CCOCC2)n1
  A: -9; B: -4.0; C: 0; D: 0.71; E: .; F: .; G: .; H: -1.2; I: .
> CCc1cc2c(SCC(=O)N3CCCC3=O)ncnc2s1
  A: 1; B: 2.1; C: 3; D: 0.69; E: -7; F: -12; G: 0.9; H: 2.7; I: i
> Cc1cc(C)cc(NS(=O)(=O)c2ccc(NC(=S)Nc3ccccc3)cc2)c1
  A: 11; B: 3.9; C: 28; D: 0.66; E: 8; F: 9; G: 4.2; H: -1.4; I: i
> Cc1ccc(S(=O)(=O)N2[C@@H](c3ccc(C#N)cc3)C(C(=O)O)=C[C@H]2CC2CCCC2)cc1
  A: 2; B: 2.5; C: .; D: 0.69; E: -4; F: -12; G: -2.7; H: -0.3; I: +
> O=C(CSc1ccccc1)Nc1ccc(C(=O)Nc2ccc(O)cc2)cc1
  A: -1; B: 1.1; C: .; D: 0.72; E: 16; F: 21; G: 3.8; H: 3.1; I: .
> CC1CCN(c2ccc(NC(=O)C3CCCN3S(=O)(=O)c3ccc(F)cc3)cc2)CC1 (stereo not drawn)
  A: 8; B: 1.1; C: 33; D: 0.72; E: 6; F: 7; G: 3.2; H: 4.3; I: i
> CCOC(=O)c1ccc(NC(=S)NNC(=O)COC)cc1
  A: -11; B: 2.9; C: 32; D: 0.66; E: .; F: .; G: .; H: -1.6; I: .
> COc1cc(C(=O)N/N=C2\CCS(=O)(=O)c3ccc(F)cc32)cc(OC)c1OC
  A: -7; B: .; C: .; D: .; E: .; F: .; G: .; H: -0.7; I: i
> CC(=O)/C(=N\Nc1ccc(Cl)cc1Cl)Sc1cccc2cccnc12
  A: 22; B: .; C: -83; D: .; E: -9; F: 0; G: -1.8; H: -1.4; I: i
> CCOc1ccc(CCN2C(=S)N([C@@H](CC(C)C)CN3CCCC3CN3C(=S)NC[C@@H]3Cc3ccc(O)cc3)C[C@@H]2Cc2ccc(O)cc2)cc1 (stereo partly drawn)
  A: 15; B: .; C: .; D: .; E: 11; F: 16; G: 0.0; H: 0.1; I: i
> O=c1[nH]cc(S(=O)(=O)N2CCN(c3ccccc3F)CC2)c(=O)[nH]1
  A: .; B: .; C: .; D: .; E: -6; F: -3; G: -4.3; H: 0.2; I: i
> O=C(CS(=O)(=O)c1cn(Cc2ccc(F)cc2)c2ccccc12)N1CCCCC1
  A: 3; B: 0.3; C: 1; D: 0.79; E: .; F: .; G: .; H: -0.7; I: .
> COc1ccc(C(=O)NNC(=O)CSc2ccccc2)cc1
  A: 9; B: 5.5; C: -4; D: 0.68; E: -4; F: 0; G: -7.5; H: 0.3; I: i
> COc1ccc(CCNC(=O)COC(=O)c2cc(S(=O)(=O)NCc3ccccc3)ccc2O)cc1OC
  A: 14; B: -5.0; C: -8; D: 0.66; E: 5; F: -2; G: 4.4; H: 0.8; I: i
> c1ccc(CN2CCOCCOCCOCCOCC2)cc1
  A: 4; B: 6.3; C: -2; D: 0.68; E: -6; F: -8; G: 1.1; H: 2.4; I: i
> Cc1ccc(S(=O)(=O)N=Nc2c(O)[nH]c3ccccc23)cc1
  A: 3; B: 4.1; C: -8; D: 0.71; E: .; F: .; G: .; H: 0.8; I: .
> CCc1nnc(NC(=O)CSc2ncc(-c3ccccc3)n2C)s1
  A: -12; B: 3.3; C: -1; D: 0.69; E: .; F: .; G: .; H: -2.5; I: .
> CC(C)C(=O)N=C1SC2CS(=O)(=O)CC2N1Cc1ccc(Cl)cc1 (stereo not drawn)
  A: 4; B: 2.4; C: 2; D: 0.65; E: -5; F: 22; G: 0.2; H: 4.3; I: i
> CC(=O)Nc1ccc(NCN2C(=O)[C@@H]3[C@H]4CC[C@H](C4)[C@@H]3C2=O)cc1
  A: -2; B: 5.0; C: 94*; D: 0.64; E: .; F: .; G: .; H: -1.5; I: .
> COc1ccc(-c2cc3nc(C)cc(NCCO)n3n2)cc1
  A: 5; B: -10; C: -16; D: 0.66; E: .; F: .; G: .; H: 0.8; I: .
> Cc1cc(NS(=O)(=O)c2ccc(NC(=O)c3cc(-c4ccccc4Cl)nc4ccccc34)cc2)no1
  A: 1; B: 3.0; C: 48; D: 0.7; E: -28; F: -50; G: -0.1; H: 1.3; I: i
> CN(C)CCCNc1nc2cc(-c3cccc(C(F)(F)F)c3)sc2c(=O)n1C
  A: .; B: .; C: .; D: .; E: -25; F: -46; G: -2.8; H: 1.1; I: i
> COCC(=O)Nc1ccc2c(c1)[C@@H]1C[C@H](CC(=O)NCc3ccccc3)O[C@@H](CO)[C@@H]1O2
  A: .; B: .; C: .; D: .; E: 1; F: 3; G: 0.0; H: -1.1; I: i
> CCOC(=O)C(C)Oc1cc(Cl)c(C=O)cc1OC (stereo not drawn)
  A: 9; B: .; C: 1; D: .; E: 18; F: 13; G: -0.5; H: -1.9; I: i
> COc1ccc(CC(=O)NNC(=O)c2cnccn2)cc1
  A: -3; B: -0.2; C: -2; D: 0.67; E: 4; F: -1; G: -0.8; H: -0.6; I: i
> O=C(CN1CCN(S(=O)(=O)c2ccc(F)c(F)c2)CC1)Nc1ccccc1C(=O)NC1CC1
  A: 10; B: 3.1; C: .; D: 0.71; E: 1; F: -8; G: 3.0; H: -0.9; I: i
> COc1ccc(NC(=O)Cn2c(=O)n(CCC(=O)NCC3CCCO3)c(=O)c3cc(OC)c(OC)cc32)cc1 (stereo not drawn)
  A: -1; B: -1.6; C: -3; D: 0.7; E: 3; F: 6; G: 5.2; H: 4.6; I: i
> COCCN(C(=O)C1CCC1)c1c(N)n(CC(C)C)c(=O)[nH]c1=O
  A: -12; B: 1.5; C: 0; D: 0.68; E: 4; F: 5; G: -2.9; H: -1.1; I: i
> COc1ccc2[nH]c(C(=O)N/N=C/c3cc(OC)c(OC)c(OC)c3)cc2c1
  A: 15; B: .; C: 91*; D: .; E: -49; F: -76; G: -7.2; H: 1.4; I: i
